# Assay outcomes deposited in PubChem by several laboratories.
# Mtb growth: M. tuberculosis H37Rv growth inhibitors, H37Rv strain (AID 1626) | M. tuberculosis H37Rv growth inhibition; higher % means a stronger effect | one-dose inhibition, % at 10 µM; IC50 in µM for titrated hits | 220,000 compounds, 0.95% hits;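 active = confirmed in a dose series; inconclusive = inhibition above 80% but not taken into the dose series; inactive = below 80% or under 30% at every dose of the series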;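 note: bacteria incubated seven days before Alamar blue readout; 0% = bacteria only wells and 100% = bacteria with antibiotic wells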
# RecA intein inh: blocks M. tuberculosis RecA intein splicing; P9WHJ3; inhibition, %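 (about 9 µM by stock and volumes)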; AID 2221; 290,000 compounds, 0.75% hits; cell-free RecA intein splicing, fluorescence; in the data active = inhibition above about 30%; inconclusive = no clear call, values can overlap the other calls;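 note: 0% = vehicle wells and 100% = reference inhibitor control wells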
# Target sequence (P9WHJ3 whole entry, looked up): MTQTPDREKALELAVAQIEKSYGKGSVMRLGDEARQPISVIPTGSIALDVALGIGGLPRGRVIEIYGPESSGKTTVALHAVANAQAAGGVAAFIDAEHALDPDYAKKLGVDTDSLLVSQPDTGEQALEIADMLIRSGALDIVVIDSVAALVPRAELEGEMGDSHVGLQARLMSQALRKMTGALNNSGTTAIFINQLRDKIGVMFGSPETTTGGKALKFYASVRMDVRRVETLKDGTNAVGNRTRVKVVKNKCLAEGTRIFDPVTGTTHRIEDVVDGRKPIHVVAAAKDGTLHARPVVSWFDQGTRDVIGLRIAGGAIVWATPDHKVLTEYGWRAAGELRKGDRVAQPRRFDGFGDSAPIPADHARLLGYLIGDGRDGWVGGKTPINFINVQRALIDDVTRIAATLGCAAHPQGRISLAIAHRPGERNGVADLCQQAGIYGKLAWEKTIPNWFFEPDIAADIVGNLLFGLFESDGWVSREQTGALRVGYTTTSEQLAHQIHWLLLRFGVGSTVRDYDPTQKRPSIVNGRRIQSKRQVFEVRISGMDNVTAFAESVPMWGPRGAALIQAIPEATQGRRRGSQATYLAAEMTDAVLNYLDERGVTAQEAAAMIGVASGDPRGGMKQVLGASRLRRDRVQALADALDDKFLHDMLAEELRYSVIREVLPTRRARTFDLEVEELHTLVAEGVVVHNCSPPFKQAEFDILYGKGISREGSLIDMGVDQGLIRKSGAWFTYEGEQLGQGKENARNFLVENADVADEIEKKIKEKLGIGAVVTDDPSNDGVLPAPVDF
# Arbovirus inh: blocks arbovirus infection; arbovirus infection cell-based antiviral screen; inhibition, % at 10 µM; 200,000 compounds, 0.37% hits;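 active = inhibition from about 30%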;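 note: bluetongue infection of BSR cells; cell survival read as ATP light after 72 h; 0% = infected wells without compound and 100% = uninfected wells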
# YopH inh: blocks Yersinia enterocolitica YopH tyrosine phosphatase | fluorescence Ex485/Em525 | inhibition, %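 (about 10 µM by stock and volumes)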 | 140,000 compounds, 0.16% hits;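 active = inhibition of 50% or more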;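 note: controls were vehicle for no effect and minimum signal wells for full effect; inactives centre near -20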
# Mtb bLac sens: beta-lactam sensitization of Mtb H37Rv | M. tuberculosis H37Rv growth with meropenem, percent inhibition; hits of this screen are not shown here | inhibition, % at 25 µM | 330,000 compounds, 0.27% hits;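 active = about 74% or more and at least 40 points above the plate without the antibiotic, then above 30% in a dose series; inconclusive = first-round hits that could not be retested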;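 note: growth measured after seven days incubation then overnight dye step; 0% = bacteria only wells and 100% = bacteria with antibiotic; twin plates without the antibiotic show which effects depend on it; some results filed as inactive read as strong as hits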
# Arbovirus inh repeat: recorded beside Arbovirus inh, whose call it bears; inhibition, %; measured here: 10K subset replicate screen; many hits read low in the repeat;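 first of two repeat runs on a subset; 0% = infected and 100% = uninfected wells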
# * marks the source's active call; other numbers are inactive results; ? = inconclusive; . = not tested or not shown. An excerpt; rates above refer to the full screens.
SMILES,Mtb growth,RecA intein inh,Arbovirus inh,YopH inh,Mtb bLac sens,others
CCC(CO)NCc1ccccc1OC(C)C (stereo not drawn),5%,-2.2,-4,.,-8,
COc1cccc(C2c3c(oc4cc(C)c(C)cc4c3=O)C(=O)N2CCCN(C)C)c1 (stereo not drawn),-2%,1.3,0,-17,-1,Arbovirus inh repeat=-5
COc1cccc(NC(=O)c2ccccc2-c2nc(-c3ccc(Cl)cc3)no2)c1,2%,.,-2,-46,-1,
CCCc1cc2c(=O)c(-c3ccc4c(c3)OCCO4)coc2cc1OC(=O)c1ccco1,-7%,4.0,1,-3,-9,
CCc1ccccc1NC(=O)CSc1nnc([C@@H](NC(=O)OC(C)(C)C)C(C)C)o1,-1%,4.1,-1,-45,2,
C=C(C)Cn1c(SCC(=O)N/N=C/c2ccccc2)nc2ccccc2c1=O,0%,0.9,-5,-18,-2,
COC(=O)[C@@H]1C[C@@]1(C)[C@@H](NP(=O)(c1ccccc1)c1ccccc1)c1ccccc1,-4%,0.7,-2,-34,-4,
FC(F)(F)c1cccc(Nc2nc(N3CCCC3)nc(N3CCCC3)n2)c1,70%,0.4,-5,.,-1,
CC(C)(C)CC(C)(C)c1ccc(OCC(=O)N/N=C/c2ccc(S(=O)(=O)O)o2)cc1,-2%,13,.,.,-1,
COc1ccccc1C(=O)NC(=S)NC12CC3CC(CC(C3)C1)C2,.,-1.3,.,.,54,
C#CCOCCOCCOCCNc1nc(N2CCN(C(=O)C(Cc3ccc(O)cc3)n3cc(C(N)C(C)CC)nn3)CC2)nc(N2CCN(C(=O)C(Cc3ccc(O)cc3)n3cc(C(N)C(C)CC)nn3)CC2)n1 (stereo not drawn),3%,0.9,-7,.,69,
CCOc1ccc(-c2c(C(=O)N/N=C/c3ccoc3)nnn2-c2nonc2N)cc1,.,-0.7,.,.,-3,
COc1ccc(C(CCNCc2ccccc2)c2ccc(F)cc2)cc1 (stereo not drawn),-3%,3.4,-21,-3,97,
Cc1ccc(N(C(=O)c2ccco2)C2C=CS(=O)(=O)C2)cc1 (stereo not drawn),-5%,-1.5,0,.,-7,
COc1ccc(NC(=O)C2CC(=O)N/C(=N/NC(=O)c3ccc(Cl)cc3)S2)cc1 (stereo not drawn),-2%,.,.,.,-3,
CCOC(=O)C1=C(c2ccccc2)NC(=O)NC1c1ccc(N(C)C)cc1 (stereo not drawn),5%,0.2,5,-24,-5,
O=C1c2ccccc2NC(c2cccc(O)c2)N1Cc1ccco1 (stereo not drawn),-4%,-2.6,.,.,-4,
CS(=O)(=O)N1CCc2cc(C(=O)N3CCN(c4ccccc4)CC3)ccc21,.,-1.4,.,.,-6,
COCc1nc(-c2ccc(-c3ccc(C)cc3)nc2OC)no1,-7%,-2.8,-7,-15,0,
CCc1cc2c(C)cc(=O)oc2cc1OC(=O)C1CCCN1C(=O)OC(C)(C)C (stereo not drawn),-7%,-4.2,7,-39,7,
Cc1onc(-c2ccccc2Cl)c1C(=O)Nc1nn[nH]n1,-13%,.,0,-22,6,
Cc1cc(-c2csc(N)n2)c(C)n1-c1ccccc1,2%,8.9,-7,-15,16,
Cc1cccc(N2CCN(S(=O)(=O)c3ccc4c(c3)OCCO4)CC2)c1C,.,4.9,.,.,-2,
COc1ccc(NC(=O)COc2ccc(C(=O)NC3CCCc4ccccc43)cc2OC)cc1 (stereo not drawn),8%,0.0,-12,-20,-6,
COc1ccc(NC(=O)CSc2nnc(Cc3ccccc3)c(=O)n2N)c(OC)c1,.,3.7,.,.,-3,
CCCCCCc1nc(C(N)=O)c2[nH]c(=O)n(-c3ccccc3F)c2n1,.,-3.0,.,.,?,
O=C(Nc1nc2c(s1)COc1ccccc1-2)c1cccs1,19%,8.5,26,-1,-5,Arbovirus inh repeat=14
CCn1c(SCc2cc(=O)[nH]c3ccccc23)nc2c1c(=O)n(C)c(=O)n2C,.,.,.,-18,-5,
COc1ccc(CCNC(=O)CCN2C(=O)c3cccc4cccc(c34)C2=O)cc1OC,4%,-1.0,-3,.,9,
CCN(CC(=O)Nc1ccccc1C(F)(F)F)C(=O)CCc1nc2ccccc2c(=O)[nH]1,.,-6.3,.,.,-15,

# 2 entries picked at random from those above, as already listed:
SMILES,Mtb growth,RecA intein inh,Arbovirus inh,YopH inh,Mtb bLac sens,others
CCOc1ccc(-c2c(C(=O)N/N=C/c3ccoc3)nnn2-c2nonc2N)cc1,.,-0.7,.,.,-3,
CCC(CO)NCc1ccccc1OC(C)C (stereo not drawn),5%,-2.2,-4,.,-8,

# Following part.
SMILES,Mtb growth,RecA intein inh,Arbovirus inh,YopH inh,Mtb bLac sens,others
Cc1cccc(NC(=O)CCN2C(=O)c3ccccc3C2=O)c1,.,-0.8,.,.,-3,
Cc1cc(=O)n2[nH]c(-c3ccco3)nc2n1,5%,1.1,-1,-34,3,
CCOc1ccc(NC(=O)c2cnccn2)cc1,8%,-1.0,-2,27,0,
O=C(Nc1cc(Cl)ccc1O)C1CC(c2ccccc2Cl)=NO1 (stereo not drawn),.,7.1,.,.,81,
COc1cc(/C=C/C(=O)O)cc(S(=O)(=O)Nc2ccccc2SC)c1OC,-5%,-1.7,1,-29,5,
CC[n+]1c(/C=C(/C)SC)sc2ccccc21,-12%,7.9,1,-17,11,
COc1ccc(-c2noc(CN3CCN(c4ccccc4F)CC3)n2)cc1OC,1%,6.8,12,-22,59,
CC(C)(Oc1ccc(Cl)cc1)C(=O)N/N=C/c1cn[nH]c1-c1ccccc1,0%,9.3,-1,-21,-11,
COc1ccc(-c2nc(N)nc(C)c2Oc2ccccc2Br)c(O)c1,6%,.,-47,-18,-3,
COc1nc2ccccc2nc1OC,.,-0.3,4,.,2,
COc1ccc(OCC(=O)N2CCN(C(=O)c3ccc(F)cc3)CC2)cc1,.,0.1,.,.,-8,
CCN(CC)S(=O)(=O)c1ccc(NC2c3ccccc3C(=O)N2c2ccc(C)cn2)cc1 (stereo not drawn),3%,1.5,-5,-37,-9,
CCSc1ccccc1C(=O)N1CCN(c2ccccc2F)CC1,-4%,2.7,-9,37,-4,
COc1ccc(CN2CCC(N3CC(C)OC(C)C3)CC2)c(OC)c1 (stereo not drawn),.,-3.5,.,.,1,
O=C(CSC(=S)N1CCOCC1)N1N=CCC1c1ccccc1 (stereo not drawn),4%,1.8,1,-6,0,
O=C(Nc1nc(-c2ccccc2)c(-c2ccccc2)s1)c1ccc(S(=O)(=O)N2CCCCC2)cc1,11%,-8.9,12,-37,4,
COC(=O)[C@H]1[C@H]2C[C@H]3c4[nH]c5ccccc5c4CCN3C[C@H]2CC[C@@H]1O,.,-1.1,.,.,0,
O=C1c2ccccc2C(=O)C1c1ccc(Br)cc1,.,-2.9,.,.,2,
CN(/N=C/c1c[nH]c2ccccc12)c1cnn(-c2ccc(F)c(Cl)c2)c(=O)c1Cl,-6%,-6.4,-7,3,-5,
C=CCNC(=O)CC(=O)N/N=C/c1cccc(Br)c1,1%,1.7,6,-27,4,
COc1ccc(C(C[N+](=O)[O-])c2c(C)cc3ccccn23)c(OC)c1 (stereo not drawn),.,4.9,.,.,93,
COc1ccc(NC(=O)c2oc3ccccc3c2NC(=O)C2CC2)cc1,4%,-1.8,0,-37,.,
COc1ccc(S(=O)(=O)N2CCOCC2)cc1NC(=O)c1cccc(-n2cccc2)c1,.,1.4,.,.,-17,
CC(=O)Nc1cccc(C(=O)OCC(=O)NNC(=O)c2ccc([N+](=O)[O-])cc2)c1,.,-3.1,.,.,8,
O=C(OCc1nnc(-c2ccc(Br)cc2)o1)c1ccco1,.,2.3,.,.,14,
Cc1c(C(=O)c2ccc(Cl)c(Cl)c2)cnc2cc3c(cc12)OCO3,-2%,-0.1,-6,5,4,
C[N+](C)(C)CCOP(=O)([O-])OC[C@H](O)CO,-9%,-0.7,-2,-44,-2,
Cc1ccc(N2C(=O)CC(Cc3ccc(Cl)cc3)C2=O)cc1 (stereo not drawn),.,2.3,.,.,0,
CCOC(=O)C1CCN(C(=O)CN2C(=O)c3cccnc3Oc3ccc(C)cc32)CC1,.,-0.7,.,.,?,
CCCC(=O)Nc1sc(C(=O)Nc2cccc(N)c2)c(C)c1C(=O)OC,-2%,-2.8,-32,.,0,
Cc1cccnc1NC(=O)Nc1ccc(F)cc1,0%,-3.2,4,-8,6,
CCCN(CC(=O)Nc1ccc(F)c(F)c1F)C(=O)C1CC(=O)N(Cc2ccccc2)C1 (stereo not drawn),.,-2.8,.,.,-8,
COc1ccc(-c2nc3ccc(C)cn3c2NCc2ccc3c(c2)OCO3)cc1,-1%,-9.4,-7,.,5,
O=S(=O)(c1ccc(Oc2ccc(Cl)cc2)c(S(=O)(=O)N2CCCCC2)c1)N1CCCCC1,-5%,0.7,38*,-5,8,
CCOc1cc(CNCC2CCCN2CC)cc(Cl)c1OC (stereo not drawn),-3%,0.1,-2,.,-7,
COc1ccc(C(C)NC(=O)Nc2ccc(C(C)=O)cc2)cc1OC (stereo not drawn),.,-7.8,.,.,2,
CC(=O)Nc1cccc(C(=O)N/N=C/c2ccc(C)o2)c1,4%,-0.3,1,.,-14,
CCc1nnc(SCC(=O)Nc2ccc(N3CCOCC3)cc2)o1,5%,-2.8,5,-6,-5,
COCOc1ccc(/C=C/C(=O)c2c(O)cc(OCOC)cc2OCOC)cc1,-8%,0.8,.,.,-2,
C/C(=N/NC(=O)c1ccc(C)s1)c1cccc(NC(=O)COc2ccc(Cl)cc2Cl)c1,4%,0.4,-9,-13,5,
CC(C)N1C[C@@]23C=C[C@@H](O2)C(C(=O)OCc2ccccc2)[C@H]3C1=O (stereo partly drawn),2%,-0.7,11,-46,-10,
CCOc1ccc(NC(=S)NC(=O)c2c(Cl)c(C)nn2C)c([N+](=O)[O-])c1,-1%,2.9,-8,-18,10,
Cc1occc1C(=O)N1CCN(c2ncccn2)CC1,-6%,-0.6,1,8,-12,Arbovirus inh repeat=-1
Cc1cccc(N(CC(=O)NCC2CCCO2)C(=O)CCC(=O)Nc2cc(C)on2)c1 (stereo not drawn),-5%,1.8,0,-14,-6,
Cc1ccc(OCC(=O)NCC(=O)n2nc(C)cc2C)cc1,.,0.2,5,6,-5,
O=C(NN=C1CCCCCC1)c1ccc2c(c1)OCO2,1%,1.4,1,.,2,

# An excerpt from above in order of number of heavy atoms, smallest number first:
SMILES,Mtb growth,RecA intein inh,Arbovirus inh,YopH inh,Mtb bLac sens,others
COc1nc2ccccc2nc1OC,.,-0.3,4,.,2,
CC[n+]1c(/C=C(/C)SC)sc2ccccc21,-12%,7.9,1,-17,11,
CCC(CO)NCc1ccccc1OC(C)C (stereo not drawn),5%,-2.2,-4,.,-8,
Cc1cccnc1NC(=O)Nc1ccc(F)cc1,0%,-3.2,4,-8,6,
Cc1occc1C(=O)N1CCN(c2ncccn2)CC1,-6%,-0.6,1,8,-12,Arbovirus inh repeat=-1
O=C(Nc1nc2c(s1)COc1ccccc1-2)c1cccs1,19%,8.5,26,-1,-5,Arbovirus inh repeat=14
CCOc1cc(CNCC2CCCN2CC)cc(Cl)c1OC (stereo not drawn),-3%,0.1,-2,.,-7,
Cc1cccc(NC(=O)CCN2C(=O)c3ccccc3C2=O)c1,.,-0.8,.,.,-3,
COc1ccccc1C(=O)NC(=S)NC12CC3CC(CC(C3)C1)C2,.,-1.3,.,.,54,
COc1ccc(CN2CCC(N3CC(C)OC(C)C3)CC2)c(OC)c1 (stereo not drawn),.,-3.5,.,.,1,
COc1ccc(C(CCNCc2ccccc2)c2ccc(F)cc2)cc1 (stereo not drawn),-3%,3.4,-21,-3,97,
COc1ccc(OCC(=O)N2CCN(C(=O)c3ccc(F)cc3)CC2)cc1,.,0.1,.,.,-8,
COc1ccc(-c2noc(CN3CCN(c4ccccc4F)CC3)n2)cc1OC,1%,6.8,12,-22,59,
CCc1ccccc1NC(=O)CSc1nnc([C@@H](NC(=O)OC(C)(C)C)C(C)C)o1,-1%,4.1,-1,-45,2,
C/C(=N/NC(=O)c1ccc(C)s1)c1cccc(NC(=O)COc2ccc(Cl)cc2Cl)c1,4%,0.4,-9,-13,5,
COc1ccc(CCNC(=O)CCN2C(=O)c3cccc4cccc(c34)C2=O)cc1OC,4%,-1.0,-3,.,9,
COc1ccc(NC(=O)COc2ccc(C(=O)NC3CCCc4ccccc43)cc2OC)cc1 (stereo not drawn),8%,0.0,-12,-20,-6,
